Assay outcomes deposited in PubChem by Broad Institute.
MLL AF4-AF9 inh = blocks AF4 peptide binding to human AF9; P42568; 0.47% of 350,000 active; AlphaScreen, biotin-AF4 peptide binding to FLAG-AF9; inhibition, % at 10 µM;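 active = every replicate reaching a set inhibition limit, whatever the replicate mean, cut at about 25% in these data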;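 also: 0% = plate neutral control median and 100% = total signal loss; the record names both 10 and 1 µM as test concentration; the first replicate is given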
Target sequence (P42568 whole entry, looked up): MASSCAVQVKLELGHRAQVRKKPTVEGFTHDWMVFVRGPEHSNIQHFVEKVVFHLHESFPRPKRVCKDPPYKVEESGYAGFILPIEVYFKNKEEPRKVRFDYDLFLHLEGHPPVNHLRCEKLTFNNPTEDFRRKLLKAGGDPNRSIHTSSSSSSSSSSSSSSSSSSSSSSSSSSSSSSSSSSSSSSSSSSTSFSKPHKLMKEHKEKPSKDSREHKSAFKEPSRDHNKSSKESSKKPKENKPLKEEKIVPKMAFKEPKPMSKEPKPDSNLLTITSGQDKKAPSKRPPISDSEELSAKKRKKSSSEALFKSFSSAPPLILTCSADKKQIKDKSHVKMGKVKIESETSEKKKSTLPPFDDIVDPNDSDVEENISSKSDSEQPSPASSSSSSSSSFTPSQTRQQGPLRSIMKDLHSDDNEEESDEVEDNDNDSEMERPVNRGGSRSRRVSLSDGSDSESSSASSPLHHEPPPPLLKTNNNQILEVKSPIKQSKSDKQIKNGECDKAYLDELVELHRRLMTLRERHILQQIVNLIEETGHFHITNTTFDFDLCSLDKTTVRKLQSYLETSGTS
Ecoli rRNA inh = inhibitors of bacterial rRNA selective over humanized ribosomes; E. coli WT GFP vs humanized-ribosome RFP mutants, fluorescence, 24 h; active compounds read low; DMSO median 0, no signal -100; GFP signal change (wild-type ribosome), % (concentration not given with the values); 1.6% of 350,000 active;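 active = significant combined selectivity score with lowered wild-type GFP, culture density cut under 30%, mutant RFP and density less affected; inactive = any of these conditions unmet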; also: one replicate is shown; some compounds called inactive have numbers as strong as hits
Ecoli rRNA inh OD600 = further read-out of Ecoli rRNA inh, marked with its call; OD600 change, %; measured here: OD600 growth;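 optical density of the mix in the first replicate; 0 = DMSO median and -100 = no signal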
Ecoli rRNA inh RFP = also measured in Ecoli rRNA inh; calls as there; RFP signal change, %; measured here: RFP humanized mutant strains;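 first replicate; 0 = DMSO median and -100 = no signal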
* = called active by the depositor. The list is partial; count on the stated rates, not on these rows.

No.	smiles	MLL AF4-AF9 inh	Ecoli rRNA inh
1	Cc1noc(C)c1S(=O)(=O)N(C)C[C@@H]1OCCCC[C@H](C)Oc2ccc(N(C)C)cc2C(=O)N([C@H](C)CO)C[C@H]1C	1.1	-1
2	O=C(C[C@@H]1CC[C@@H]2[C@H](COC[C@H](O)CN2Cc2cc(F)cc(F)c2)O1)NCc1cccc(F)c1	-2.3	1
3	O=C(Nc1ccccc1)N1CCCCN2[C@@H](CO)[C@@H](c3ccc(-c4ccccc4F)cc3)[C@@H]2C1	14	-56
4	C[C@@H]1CN([C@@H](C)CO)C(=O)c2cc(NC(=O)CCC(F)(F)F)ccc2O[C@@H](C)CCCCO[C@H]1CN(C)S(=O)(=O)c1cn(C)cn1	-2.3	2
5	O=C(CC(F)(F)F)N1C[C@@H]2[C@H](c3ccccc31)[C@@H](CO)N2C(=O)C1CC1	-0.8	4
6	C[C@H](CO)N1C[C@H](C)[C@H](CN(C)Cc2ccc(Oc3ccccc3)cc2)Oc2ccc(NC(=O)Nc3ccccc3)cc2C1=O	-1.9	-1
7	C[C@H]1CN([C@@H](C)CO)C(=O)c2cc(NC(=O)c3ccncc3)ccc2O[C@@H]1CN(C)S(C)(=O)=O	-3.0	2
8	CC(C)CC1C(=O)N(Cc2cn(CCC3OCCO3)nn2)CCS(=O)(=O)N1Cc1ccc(-c2cccc(N(C)C)c2)cc1 (configuration not stated)	21	3
9	O=C(NCC[C@H]1CC[C@@H](NC(=O)c2ccc3c(c2)OCO3)[C@@H](CO)O1)Nc1ccc(Cl)cc1	7.8	-56
10	O=C(N[C@@H]1CC[C@H](CCn2cc(-c3ccc(F)cc3)nn2)O[C@H]1CO)c1cnccn1	-1.0	3

No.	Ecoli rRNA inh OD600	Ecoli rRNA inh RFP
1	2	0.0
2	-4	-0.6
3	-76	-13
4	11	0.2
5	14	0.3
6	-16	14
7	2	-0.4
8	7	-3.1
9	-67	-0.2
10	1	-1.0

(more compounds)
No.	smiles	MLL AF4-AF9 inh	Ecoli rRNA inh
11	C[C@@H](NC(=O)C[C@H]1CC[C@@H](NC(=O)C2CCOCC2)[C@@H](CO)O1)c1ccccc1	-1.6	-2
12	CCCNC(=O)[C@H]1[C@H](CO)[C@H]2Cn3c(ccc(C4=CCCC4)c3=O)[C@@H]1N2C(=O)CC1CC1	0.0	-1
13	Cc1noc(C)c1NC(=O)Nc1ccc2c(c1)C(=O)N([C@@H](C)CO)C[C@@H](C)[C@@H](CN(C)S(=O)(=O)c1cn(C)cn1)OCCCC[C@H](C)O2	-4.5	6
14	C[C@@H]1CN([C@H](C)CO)S(=O)(=O)c2ccc(-c3cccc(C(=O)N(C)C)c3)cc2O[C@@H]1CN(C)C(=O)Nc1ccccc1	-10	-4
15	CCCN(C)C[C@H]1OCCCC[C@H](C)Oc2ccc(NC(=O)Nc3cccc4ccccc34)cc2C(=O)N([C@@H](C)CO)C[C@H]1C	0.0	-5
16	CCC(=O)N1C[C@@H](C)[C@@H](OC)CN(C)C(=O)c2ccc(NC(=O)Nc3ccccc3)cc2OC[C@@H]1C	1.9	-3
17	CN(C)C(=O)C[C@@H]1C=C[C@@H](NC(=O)c2ccc(F)cc2)[C@@H](CO)O1	-0.3	1
18	CCCNC(=O)N1C[C@H](C)[C@H](OC)CN(C)C(=O)c2cc(NS(C)(=O)=O)ccc2OC[C@H]1C	-2.0	-1
19	CNC[C@H]1Oc2c(NC(=O)C3CC3)cccc2C(=O)N([C@@H](C)CO)C[C@@H]1C	-3.1	3
20	CN(C)c1ccc(-c2ccnc3c2CC(C)(C(=O)Nc2cccc(Oc4ccccc4)c2)O3)cc1 (configuration not stated)	6.5	7

No.	Ecoli rRNA inh OD600	Ecoli rRNA inh RFP
11	5	0.1
12	3	2.0
13	11	-1.4
14	-3	-2.2
15	-5	-0.1
16	-7	1.0
17	13	-0.1
18	-3	-2.4
19	8	-0.6
20	11	1.3

Further entries:
No.	smiles	MLL AF4-AF9 inh	Ecoli rRNA inh
21	C/C=C/c1ccc2c(c1)O[C@@H](CN(C)S(=O)(=O)c1ccc(C)cc1)[C@@H](C)CN([C@H](C)CO)S2(=O)=O	5.8	-4
22	NNC(=O)c1nnsc1-c1csnn1	-1.8	1
23	CC(C)n1nnnc1C1c2ccccc2C(=O)N1CCc1c[nH]c2ccccc12 (configuration not stated)	3.9	-30*
24	CCS(=O)(=O)N1[C@H](CO)[C@H](c2ccc(C#CC(C)C)cc2)[C@@H]1C#N	-0.7	7
25	COc1ccc(NC(=O)N(C)C[C@H]2Oc3ccc(NC(=O)Nc4ccc(F)cc4)cc3CC(=O)N([C@H](C)CO)C[C@H]2C)cc1	-0.2	2
26	O=C(Nc1ccc2c(c1)OCO2)N[C@@H]1CC[C@H](CC(=O)N2CCN(c3ccccc3)CC2)O[C@@H]1CO	3.9	-5
27	COCC(=O)N1CC2(C1)CN(Cc1cccc(F)c1)[C@H](CO)c1c2c2ccc(OC)cc2n1C	-5.8	0
28	CO[C@@H]1CN(C)C(=O)c2cc(NC(C)=O)ccc2OC[C@@H](C)N(Cc2cc(-c3ccccc3)on2)C[C@H]1C	4.0	-5
29	C[C@@H]1CN([C@H](C)CO)S(=O)(=O)c2ccc(C#C[C@@H](C)O)cc2O[C@H]1CN(C)C(=O)CC1CC1	1.6	-1
30	O=C(NCc1ccccc1)C(CCc1ccccc1)n1c(=O)c(-c2cc3ccccc3[nH]2)nc2ccccc21 (configuration not stated)	-24	8

No.	Ecoli rRNA inh OD600	Ecoli rRNA inh RFP
21	-5	-0.3
22	3	-4.2
23	-15*	-0.2*
24	17	-2.7
25	-2	0.1
26	-4	0.8
27	2	-1.4
28	-11	-0.3
29	1	-2.0
30	1	19

Reformatted: two of the compounds above
(28) CO[C@@H]1CN(C)C(=O)c2cc(NC(C)=O)ccc2OC[C@@H](C)N(Cc2cc(-c3ccccc3)on2)C[C@H]1C
  MLL AF4-AF9 inh: 4.0 | Ecoli rRNA inh: -5 | Ecoli rRNA inh OD600: -11 | Ecoli rRNA inh RFP: -0.3
(27) COCC(=O)N1CC2(C1)CN(Cc1cccc(F)c1)[C@H](CO)c1c2c2ccc(OC)cc2n1C
  MLL AF4-AF9 inh: -5.8 | Ecoli rRNA inh: 0 | Ecoli rRNA inh OD600: 2 | Ecoli rRNA inh RFP: -1.4

4 entries already listed, arranged by heavy-atom count, smallest number first:
No.	smiles	MLL AF4-AF9 inh	Ecoli rRNA inh
21	C/C=C/c1ccc2c(c1)O[C@@H](CN(C)S(=O)(=O)c1ccc(C)cc1)[C@@H](C)CN([C@H](C)CO)S2(=O)=O	5.8	-4
28	CO[C@@H]1CN(C)C(=O)c2cc(NC(C)=O)ccc2OC[C@@H](C)N(Cc2cc(-c3ccccc3)on2)C[C@H]1C	4.0	-5
30	O=C(NCc1ccccc1)C(CCc1ccccc1)n1c(=O)c(-c2cc3ccccc3[nH]2)nc2ccccc21 (configuration not stated)	-24	8
25	COc1ccc(NC(=O)N(C)C[C@H]2Oc3ccc(NC(=O)Nc4ccc(F)cc4)cc3CC(=O)N([C@H](C)CO)C[C@H]2C)cc1	-0.2	2

No.	Ecoli rRNA inh OD600	Ecoli rRNA inh RFP
21	-5	-0.3
28	-11	-0.3
30	1	19
25	-2	0.1

Next entries follow.
No.	smiles	MLL AF4-AF9 inh	Ecoli rRNA inh
31	C[C@H](CO)N1C[C@H](C)[C@@H](CN(C)C)Oc2cc(C#Cc3ccccc3)ccc2S1(=O)=O	7.8	-1
32	C[C@H]1CCCCO[C@@H](CN(C)Cc2ccc3c(c2)OCO3)[C@@H](C)CN([C@@H](C)CO)C(=O)c2cc(NC(=O)c3ccccc3)ccc2O1	9.6	3
33	CO[C@@H]1CN(C)C(=O)c2cc(NS(C)(=O)=O)ccc2OC[C@H](C)N(C(=O)C2CC2)C[C@@H]1C	-1.8	1
34	CC(C)C#Cc1ccc2c(c1)O[C@@H](CN(C)C(=O)c1ccccn1)[C@@H](C)CN([C@H](C)CO)S2(=O)=O	-0.7	-2
35	CC(C)CC#Cc1ccc([C@H]2[C@@H](CO)N3C(=O)CN(C(=O)Nc4cc(F)ccc4F)C[C@H]23)cc1	-0.5	-7
36	CC(C)CC#Cc1ccc([C@H]2[C@@H](CO)N3C(=O)CN(C(=O)Nc4ccc(F)cc4)C[C@@H]23)cc1	2.6	-40
37	CC(=O)Nc1ccc(NC(=O)c2cc(S(=O)(=O)N3CCCCC3)ccc2C)cc1	-1.7	2
38	CN(C)C(=O)c1cccc(-c2ccc([C@H]3[C@@H](C#N)N(C(=O)C4CCCC4)[C@H]3CO)cc2)c1	-1.0	1
39	CC(C)NC(=O)N(C)C[C@H]1Oc2cc(C#Cc3ccc(F)cc3)ccc2S(=O)(=O)N([C@@H](C)CO)C[C@@H]1C	1.3	-16
40	CCCC#Cc1ccc([C@H]2[C@@H](CO)N3C(=O)CN(C(=O)Nc4cccc(F)c4)C[C@H]23)cc1	-0.4	-13

No.	Ecoli rRNA inh OD600	Ecoli rRNA inh RFP
31	-10	6.6
32	-6	3.9
33	3	-0.5
34	-13	-2.1
35	-35	1.0
36	-60	16
37	8	-0.5
38	4	-2.1
39	-55	22
40	-42	17

(further entries)
No.	smiles	MLL AF4-AF9 inh	Ecoli rRNA inh
41	CC(C)NC(=O)NCC[C@H]1CC[C@@H](NS(=O)(=O)c2ccc(-c3ccccc3)cc2)[C@H](CO)O1	7.5	-2
42	C[C@@H]1CN([C@H](C)CO)C(=O)c2cccc(NC(=O)C3CCOCC3)c2O[C@@H]1CN(C)C(=O)Nc1ccc2c(c1)OCO2	-7.2	0
43	CCCCN(C=O)c1c(CC)nc2ccc(C(=O)N3CCN(S(=O)(=O)CC)CC3)cn12	-10	-1
44	O=C(C[C@H]1CC[C@@H](NC(=O)C2CCC2)[C@H](CO)O1)NCc1ccncc1	-1.5	-1
45	COCc1cn(CC[C@@H]2CC[C@@H](NC(=O)Nc3ccc(Cl)cc3)[C@@H](CO)O2)nn1	-0.8	-1
46	C[C@@H]1CCCCO[C@@H](CN(C)C(=O)c2ccccc2)[C@H](C)CN([C@@H](C)CO)C(=O)c2cc(NC(=O)CCC(F)(F)F)ccc2O1	-3.7	-1
47	N#C[C@H]1[C@@H](c2ccccc2)[C@H](CO)N1C(=O)c1ccc2c(c1)OCO2	-2.0	4
48	CC(=O)NC[C@H]1[C@@H](c2ccc(-c3cccc(F)c3)cc2)[C@@H](CO)N1C(C)=O	-0.8	0
49	O=C(C[C@@H]1CC[C@@H]2[C@H](COC[C@H](O)CN2S(=O)(=O)c2ccc(Cl)cc2)O1)NCCN1CCCCC1	0.5	0
50	CN(C)CCCNC(=O)C[C@H]1C=C[C@@H](NC(=O)Cc2cccnc2)[C@H](CO)O1	-0.3	-1

No.	Ecoli rRNA inh OD600	Ecoli rRNA inh RFP
41	-2	-0.2
42	3	-0.6
43	4	-1.6
44	-5	0.8
45	0	1.7
46	-2	-1.6
47	9	-1.1
48	-5	-0.7
49	12	-2.1
50	6	-2.0

More structures
No.	smiles	MLL AF4-AF9 inh	Ecoli rRNA inh
51	OC(c1ccccc1)(c1ccccc1)C1CCN(CCCOc2ccc3c(c2)CCCC3)CC1	4.8	-48
52	CO[C@@H]1CN(C)C(=O)c2ccc(NC(=O)c3ccccc3)cc2OC[C@H](C)NC[C@H]1C	-8.7	2
53	C[C@H](CO)N1C[C@H](C)[C@H](CN(C)Cc2ccc3c(c2)OCO3)Oc2ccc(NC(=O)c3ccncc3)cc2CC1=O	-3.1	0
54	O=C(NCc1ccccc1)[C@@H]1[C@@H](CO)[C@@H]2Cn3c(cccc3=O)[C@H]1N2	0.2	-2
55	COc1ccc(-c2ccc(C(=O)Nc3cccc(C(C)=O)c3)c3occc23)c(C)c1	-6.9	5
56	C[C@H]1CN([C@@H](C)CO)C(=O)c2cccc(NC(=O)CCCCCC(=O)Nc3ccccc3N)c2O[C@@H]1CN(C)Cc1ccncc1	-0.8	-3
57	COc1ccccc1NC(=O)N1CC(=O)N2[C@H](CO)[C@H](c3ccc(C#Cc4ccccc4)cc3)[C@H]2C1	-1.8	0
58	COc1cc(OC)nc(Nc2nc(C(N)Cc3ccccc3)cs2)n1 (configuration not stated)	9.5	-2
59	CCCNC(=O)[C@H]1[C@H](CO)[C@H]2Cn3c(ccc(-c4ccc(F)cc4)c3=O)[C@H]2N1CCC	-0.3	-1
60	COc1cccc(-c2cnc3c(c2)C(=O)N([C@@H](C)CO)C[C@H](C)[C@H](CN(C)C(=O)CC2CC2)O3)c1	-2.9	0
61	CCCN1[C@@H]2c3ccc(-c4cccc(F)c4)c(=O)n3C[C@@H]2[C@@H](CO)[C@@H]1C(=O)N(C)C	-0.8	1
62	C[C@@H]1CN([C@@H](C)CO)C(=O)c2cc(NC(=O)CCC(F)(F)F)ccc2O[C@@H]1CN(C)Cc1ccccc1	-2.6	-1

No.	Ecoli rRNA inh OD600	Ecoli rRNA inh RFP
51	-76	-15
52	0	-0.7
53	-8	-0.4
54	-2	-4.9
55	8	9.4
56	0	-0.4
57	-43	23
58	-21	15
59	-1	-3.9
60	5	-0.9
61	7	1.6
62	2	-1.3
